Screening results (PubChem)
CtBP-E1A inh – CtBP/E1A binding inhibition; AlphaScreen GST-E1A/His-CtBP binding, 1536-well; stronger effect = lower value; control for the full effect not named in the record; activity change, % (test concentration not listed); 0.49% of 340,000 active; in the data active means activity change below about -65%; inconclusive means about -30% to -65%; inactive means above about -30%; note: % is set by controls: 0 for no effect and ±100 for the full control effect; compound concentration not given in the record
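Protein mix (5X: 125 nM each GST-E1A, His-CtBP) was incubated with pinned compound 2 h at 37 deg C in dark, in 50 mM Tris pH 8.0 buffer with 300 mM NaCl. Glutathione donor and nickel acceptor beads followed; AlphaScreen signal read after 1 h.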
PINK1 expr mod – changes PINK1 expression | Potency, µM (series often up to 76.6 µM), for inactives: at the top dose activation (PINK1 increase), actives largely listed as activators | 0.2% of 410,000 active | PINK1 immunofluorescence, high-content cytometry, 24 h; active = well fitted activation curve with a large enough effect; inconclusive = small, poorly fitted or top-dose-only effect; inactive = flat fitted curve, though single readings scatter; cell line not stated here;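 note: potency is the fitted concentration of half-maximal effect; % of control where 0% means no effect; nearly all actives have a fitted effect of over 65% in size; a mitochondrial uncoupler was the plate control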
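Compound titrations (5 concentrations, 24 h) on a stable cell line; DMSO and CCCP controls. Endpoint: fixed-cell PINK1 immunofluorescence with mitochondrial, cell and nuclear markers, scanned by microplate cytometer.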
TRPML1 agonist – activates the human TRPML1 channel. activation, % (concentration not given with the values). AID 624414. 0.12% of 410,000 active. TRPML1-expressing cells, Ca2+ dye fluorescence, FDSS; host cell line not named in the record; reference of the full effect not given here. Q9GZU1; in the data active = activation above about 50%; inconclusive = about 30% to 50%; inactive = below about 30%; note: 0% is about no effect; the text of the record puts the active cut at 80%
Target sequence (Q9GZU1 whole entry, looked up): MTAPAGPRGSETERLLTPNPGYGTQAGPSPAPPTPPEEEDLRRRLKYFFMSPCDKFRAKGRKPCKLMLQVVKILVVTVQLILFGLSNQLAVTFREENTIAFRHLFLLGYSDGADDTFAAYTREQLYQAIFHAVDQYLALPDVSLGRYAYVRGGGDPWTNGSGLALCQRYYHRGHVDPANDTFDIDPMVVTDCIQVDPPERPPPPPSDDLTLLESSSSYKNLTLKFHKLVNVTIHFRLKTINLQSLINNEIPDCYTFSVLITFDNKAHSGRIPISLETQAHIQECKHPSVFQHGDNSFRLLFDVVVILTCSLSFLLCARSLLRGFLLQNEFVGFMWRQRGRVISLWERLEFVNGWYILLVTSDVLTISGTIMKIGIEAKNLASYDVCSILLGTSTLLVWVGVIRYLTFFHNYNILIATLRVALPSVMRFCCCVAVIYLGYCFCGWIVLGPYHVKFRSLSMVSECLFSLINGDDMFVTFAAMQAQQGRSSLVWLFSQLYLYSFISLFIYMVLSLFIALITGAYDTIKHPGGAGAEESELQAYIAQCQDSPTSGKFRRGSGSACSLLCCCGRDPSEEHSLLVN
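TRPML1-DL cells, Tet-induced overnight (~16 h, 37 degrees C), loaded 45-90 min at room temperature with Ca8 no-wash calcium dye plus quencher. FDSS fluorescence: 10 s baseline, compound pin-transfer, 110 s agonist read, then EC80 54-4 (4uM final) and 110 s antagonist read.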
Six1-Eya2 blk – Six1/Eya2 interaction inhibition | Q15475+O00167 | AID 651725 | AlphaScreen GST-Six1/His-Eya2 binding, biochemical; stronger effect = lower value; control for the full effect not named in the record | 0.56% of 360,000 active | activity change, % (concentration not given with the values); in the data active = activity change below about -65%; inconclusive = about -30% to -65%; inactive = above about -30%; note: % is set by controls: 0 for no effect and ±100 for the full control effect
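AlphaScreen with GST-Six1 and His-Eya2 (5X mix: 250 nM and 500 nM), glutathione donor and nickel acceptor beads; buffer 50 mM Tris pH 8.0, 300 mM NaCl, 1 mM TCEP; 1 h at 37 C in the dark.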
D2 PAM – potentiates the human D2 dopamine receptor allosterically; P14416; DiscoveRx D2 beta-arrestin cells, luminescence, 90 min; 100% = 57 uM dopamine signal; potentiation, % (concentration not given with the values); 0.23% of 360,000 active; AID 624464; active = potentiation of 50% or more; inconclusive = 30% to 50%; inactive = 30% or less;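 note: compound concentration not given in the record; tested on top of an EC20 dose of dopamine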
Target sequence (P14416 whole entry, looked up): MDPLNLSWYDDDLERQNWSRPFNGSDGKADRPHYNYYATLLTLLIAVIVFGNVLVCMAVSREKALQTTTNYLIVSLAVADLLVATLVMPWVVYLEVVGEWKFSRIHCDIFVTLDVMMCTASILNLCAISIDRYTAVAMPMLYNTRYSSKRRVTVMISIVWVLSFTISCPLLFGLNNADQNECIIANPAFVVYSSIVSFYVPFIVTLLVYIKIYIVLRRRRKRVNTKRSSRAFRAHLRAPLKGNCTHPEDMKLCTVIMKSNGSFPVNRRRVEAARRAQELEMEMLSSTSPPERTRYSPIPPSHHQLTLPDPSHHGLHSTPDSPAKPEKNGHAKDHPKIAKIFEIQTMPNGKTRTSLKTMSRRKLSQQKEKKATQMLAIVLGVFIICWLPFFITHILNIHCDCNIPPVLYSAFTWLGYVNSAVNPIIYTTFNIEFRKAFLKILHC
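D2 cells co-treated with compound plus 50 nM dopamine (EC20) for 90 min at 37 deg C to detect potentiation. Beta-arrestin recruitment was read as enzyme-fragment luminescence after 1 h at ambient temperature. Full response was set by 57 uM dopamine.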
D2 ag – agonists of human D2 dopamine receptor (beta-arrestin); P14416; DiscoveRx PathHunter D2 beta-arrestin, luminescence, 90 min; 100% = 57 uM dopamine signal; activation, % (test concentration not listed); 0.084% of 360,000 active; in the data active = activation above about 40%; inconclusive = about 15% to 40%; inactive = below about 15%; note: compound concentration not given in the record; the text of the record calls up to 30% inactive
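Agonist mode: compounds alone added to overnight-plated D2 PathHunter cells for 90 min at 37 C, with 57 uM final dopamine (EC100) defining full response. Beta-arrestin recruitment detected by chemiluminescent reagent, read after 1 h at ambient temperature.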
* marks the source's active call; other numbers are inactive results; ? = inconclusive; · = no result given; & = joins results of further samples; [ ] = dose if it differs, or a comment.

SMILES	CtBP-E1A inh	PINK1 expr mod	TRPML1 agonist	Six1-Eya2 blk	D2 PAM	D2 ag
CCN(CC)S(=O)(=O)c1ccc(OC)c(NC(=O)c2cccc(C)c2[N+](=O)[O-])c1	-17	2.3%	0.7	-13	-8	5.5
COc1ccc(CCNC(=O)CN(c2cc(C)cc(C)c2)S(=O)(=O)c2c(C)noc2C)cc1OC	·	1.8%	4.4	-5	-7	-1.9
Cc1ccc(C)c(/C(O)=C2/C(=O)C(=O)N(CCN3CCOCC3)C2c2ccc(C)o2)c1 (configuration not stated)	2	0.3%	0.4	4	25	-2.8
CC(C)c1ccc(S(=O)(=O)N2CCN(CCC(=O)Nc3ccc(N(C)C)cc3)CC2)cc1	?	-1.8%	2.7	?	17	-0.9
C[C@@H]1CN([C@H](C)CO)C(=O)c2cc(Br)cnc2O[C@H]1CN(C)C(=O)Nc1ccccc1F	2	1.3%	-0.3	-2	3	-7.4
CCOC(=O)c1c(C)[nH]c(C=Nc2ccc(OC)cc2)c1O	-1	0.9%	-0.6	1	-10	-0.6
Cc1c(NC(=O)C(C)OC(=O)c2cc(Cl)ccc2O)c(=O)n(-c2ccccc2)n1C (configuration not stated)	-2	-1.3%	-0.3	2	6	0.5
O=C1CC(c2cccc([N+](=O)[O-])c2)c2c(ccc3ccccc23)N1 (configuration not stated)	18	-0.6%	1.6	11	1	-0.8
O=c1c(-c2ccnn2-c2ccc(F)cc2)cnc2n1CCS2	3	0.8%	-0.3	0	-5	-1.7
CCn1cc(CN2CCCC(CNS(=O)(=O)c3ccc(OC)cc3)C2)cn1 (configuration not stated)	6	-0.4%	-0.4	-8	-22	-4.1
O=C(NC1CCN(Cc2ccccc2)CC1)c1cc(-c2ccccn2)nc2ccccc12	13	-1.0%	-0.3	0	-27	-5.3
COc1ccc(NC(=O)CCN2C(=O)NC3(CCCC3)C2=O)cc1Cl	-3	-0.9%	-0.1	1	-1	-0.4
COc1ccccc1NS(=O)(=O)c1ccc2oc(=O)ccc2c1	-1	-1.4%	-0.5	-8	-3	0.1
CCCC(=O)NCCc1nc2ccccc2n1CC(=O)c1ccccc1	13	?	-0.1	3	-13	-2.8
N[C@@H](CO)c1nnc([C@H](CCC(=O)O)NC(=O)C2CCNCC2)o1	-15	-0.6%	-0.2	1	-14	-3.8
O=C(NCCc1ccccc1)C(c1cccs1)N(C(=O)CCl)c1ccc(Cl)cc1 (configuration not stated)	4	-2.1%	0.1	-4	-22	-4.9
CC1CCCCN1S(=O)(=O)c1ccc(S(=O)(=O)N2CCN(c3ccc(F)cc3)CC2)cc1 (configuration not stated)	9	?	4.6	3	-2	-1.1
Cc1ccc(-c2nnc(SCC(=O)NC3CC3)n2N)cc1	8	1.6%	0.0	5	-2	-2.2
Cc1ccc(NC(=O)C(=O)NCC2CCCN2S(=O)(=O)c2cccs2)cc1 (configuration not stated)	8	-1.5%	-0.5	2	15	4.5
Cc1ccc(NC(=O)c2cc(N3C(=O)C=CC3=O)ccc2N2CCOCC2)cc1Cl	7	5.0%	0.6	-7	-39	-5.9
COc1ccc(NC(=S)Nc2ccc(C)c(Cl)c2)cc1OC	8	2.2%	3.6	-12	-6	0.0
Cc1cc(C)n(C(=O)c2ccc(C)o2)n1	1	2.2%	0.2	9	-1	0.9
COc1ccccc1CNC(=O)c1oc2ccccc2c1C	16	1.3%	1.8	4	8	0.8
COc1ccc(Nc2ncnc3ccc(Br)cc23)c(OC)c1	3	0.4%	1.6	3	-3	-3.7
O=C(O)c1cc(-c2ccccc2Cl)n(-c2cccc(Cl)c2)n1	1	1.4%	-0.6	3	-25	-8.9
(more compounds)
SMILES	CtBP-E1A inh	PINK1 expr mod	TRPML1 agonist	Six1-Eya2 blk	D2 PAM	D2 ag
CCN(CC)S(=O)(=O)c1cc(NC(=O)CCNC(=O)c2ccccc2Cl)ccc1C	-1	2.3%	0.1	-9	-10	-4.6
O=C(c1cccc(NS(=O)(=O)c2ccc(F)cc2)c1)N1CCN(c2ccccc2)CC1	-1	-0.3%	3.0	-12	13	-3.2
Cc1c(C)n2c(SCC(=O)N3CCCCCC3)nnc2[nH]c1=O	2	0.7%	0.2	-2	0	-2.2
O=C(NCCN1CCCC(O)C1)c1cc(COc2ccc(F)cc2Cl)on1 (configuration not stated)	2	0.1%	-0.1	-1	-21	0.0
CSc1nc2sc3c(c2c(=O)n1C)CCC(C)C3 (configuration not stated)	9	-5.9%[38.3 µM]	0.9	-2	2	-1.7
CC1(C)CC(O)C(C(O)c2cccc([N+](=O)[O-])c2)C(C)(C)N1 (configuration not stated)	3	-0.2%	0.0	8	-4	1.9
COc1ccc(Cn2c(C)nnc2-c2cnn(C)c2N)cc1OC	-5	0.0%	-0.2	5	-4	-2.8
CCOc1cc(/C=N/NC(=O)c2cc(C3CC3)[nH]n2)ccc1O	-6	0.5%	2.2	-9	-22	-0.4
Cc1nnc(SCC(=O)NC2CCCCC2)n1-c1ccccc1	0	0.3%	-1.1	-6	-9	0.0
COc1cccc(CN2CCC2(C)C(=O)Nc2ccc(Cl)c(Cl)c2)c1F (configuration not stated)	9	5.3%	-0.3	6	-3	-3.5
Cc1cccc(OCCCOc2cccc3cccnc23)c1C	7	3.8%	2.4	13	-22	-0.5
CCCN1CCC(=O)N([C@H](CO)CC(C)C)CC1	3	-0.3%	-0.8&-0.2	3	-19	1.5
O=C(NC1CCN(Cc2ccccc2)CC1)C1COc2ccccc2O1 (configuration not stated)	9	-0.2%	0.4	4	-46	3.1
COc1cc(OC)cc(C(=O)NC(C(=O)Nc2ccc3nc(C)sc3c2)C(C)C)c1 (configuration not stated)	-3	7.9%	2.2	-5	0	10
CSc1nc(NCCOCCO)c2sc3nc(-c4ccco4)c4c(c3c2n1)CCC4	-26	3.2%	-0.3	?	-13	-3.3
COc1cc(NC(=O)Cn2c(-c3cncs3)nc3ccccc32)cc(OC)c1OC	-14	3.4%[38.3 µM]	-0.6	-9	-9	-0.2
CCO/C=C1\C(=O)N(c2ccc(OCC)cc2)C(=O)c2ccccc21	-8	2.4%	-0.1	6	-14	-2.4
Cc1cc(NS(=O)(=O)N(C)C)ccc1C(C)C	7	-0.7%	-0.4	-1	6	-1.5
CCCN1CCN(C(=O)c2oc3ccccc3c2NC(=O)C2CC2)CC1	9	0.6%	-0.8	7	-17	-3.9
COc1ccc2nc(SCC(=O)c3c(N)n(C4CC4)c(=O)[nH]c3=O)[nH]c2c1	·	3.1%	-0.5	3	0	-3.5
NC(=O)c1ccccc1NC(=O)Nc1ccccc1Cl	-14	-1.7%	2.5	3	-12	-2.5
O=C(CS(=O)c1ccc(C(F)(F)F)cc1[N+](=O)[O-])Oc1ccc(Cl)cc1 (configuration not stated)	1	-0.7%	-1.0	0	16	2.5
Cc1ccc(COn2c(-c3ccc(Cl)cc3)nc3ccc([N+](=O)[O-])cc32)cc1	-6	?	0.3	1	2	2.5
CC1(C)Cc2nc(NCCCO)c(C#N)cc2CO1	-3	-1.3%	-0.8	-11	-11	-2.4
O=C(O)CN1CCN(c2ncc(C(F)(F)F)cc2Cl)CC1	6	4.5%	0.0	14	2	-1.1
The results go on.
SMILES	CtBP-E1A inh	PINK1 expr mod	TRPML1 agonist	Six1-Eya2 blk	D2 PAM	D2 ag
C#CCOCCOCCOCCNc1nc(N2CCOCC2)nc(N2CCN(C(=O)[C@H](CCC(=O)O)n3cc(C(N)[C@H](C)CC)nn3)CC2)n1 (some centres not stated)	-8	-0.5%	0.0	-7	-8	-2.0
COc1cc2c(cc1OC)CN(C(=O)c1ccc(S(=O)(=O)N3CCCC3)cc1)CC2	-11	0.1%	·	-5	1	4.6
Cc1ccc(NC(=O)CSCC(=O)NNC(=O)c2nn(C)c(=O)c3ccccc23)cc1	0	-0.9%	0.6	-1	-8	0.0
Cc1ccccc1C(=O)NC1CCN(CC(=O)Nc2ccccc2)CC1	-6	1.9%	0.7	2	0	-5.3
Cc1ccc2nc(-c3cc(-c4ccccc4)no3)cn2c1	-7	-1.0%	1.3	-1	-1	0.7
CC(C)CC(=O)N1CCN(S(=O)(=O)c2ccc3ccccc3c2)CC1	-7	-3.4%	-1.3	2	7	4.0
COc1ccc2oc(=O)c(/C(C)=N/Nc3nc(-c4cc(C)ccc4C)cs3)cc2c1	-1	4.8%	1.0	-12	-16	-3.2
Nc1ncnc2c1ncn2[C@@H]1O[C@H](CNC(=O)[C@@H](N)Cc2ccc(C(=O)c3ccccc3)cc2)[C@@H](O)[C@H]1O	9	1.5%	-0.6	-4	1	-1.5
O=C(CC1CC2CCC1C2)Nc1nc(-c2ccccn2)cs1 (configuration not stated)	?	6.6%	-0.5	?	-3	1.3
Cc1cc(C)n2c(SCC(=O)Nc3cc(S(=O)(=O)N(C)C)ccc3C)nnc2n1	1	-1.3%	-0.2	-3	-15	-2.2
Cc1ccc(Cc2c(C)nc3nc(SCC(=O)NCCCN4CCCCCC4)nn3c2C)cc1	-5	1.6%	1.7	2	-23	-4.3
Cc1sc2nc3ccc(NCc4ccco4)nn3c(=O)c2c1C	?	?	-0.6	-66*	5	0.4
Cc1cc(C)c(S(=O)(=O)NC(C)C)c(C)c1-n1cnnn1	4	0.7%	-0.1	2	-1	-4.0
CC(C)Cc1cc(C(C)(C)C)ccc1OC(=S)N(C)C	26	25%	0.1	44	-2	-2.7
CCN(CC)C(=O)[C@H]1CC(CC(=O)NCc2cccc(C(F)(F)F)c2)C(=O)N2CCc3c([nH]c4ccc(OC)cc34)[C@]12C (some centres not stated)	-15	2.4%	0.7	-10	-8	-1.9
CC[C@]12c3[nH]c4ccc(Cl)cc4c3CCN1C(=O)[C@@H](CC(=O)NCCc1ccccn1)C[C@@H]2C(=O)N1CCN(C(=O)c2ccco2)CC1	-29	0.2%	-0.5	-6	·	-1.0
Cc1ccc(Cn2cc(S(=O)(=O)c3ccc(C(C)C)cc3)c(=O)c3cc4c(cc32)OCO4)cc1	-20	2.2%	0.5	-8	5	-2.8
CCn1cc(C(=O)N2CCN(c3ccc(OC)cc3)CC2)c(=O)c2cc(S(=O)(=O)N3CCOCC3)ccc21	-2	-0.3%&1.3%	-1.2&-0.2	-1	-15	-1.0
O=C(c1cc(-c2cccc(Cl)c2)on1)N1CCN(c2ccccc2)CC1	-12	0.6%&0.0%	2.6&-0.5	1	-1	-3.3
COC(=O)c1cnc(Nc2nc(C(N)Cc3ccc(Cl)cc3)cs2)nc1C(F)(F)F (configuration not stated)	-18	-0.9%	0.3	3	-2	-1.5
C[C@]12c3[nH]c4cc(-c5ccco5)ccc4c3CCN1C(=O)[C@@H](CC(=O)NCC13CC4CC(CC(C4)C1)C3)C[C@@H]2C(=O)N1CCOCC1	-23	5.6%	-0.6	-25	-12	-4.3

Random excerpt: three entries already listed, in no set order.
SMILES	CtBP-E1A inh	PINK1 expr mod	TRPML1 agonist	Six1-Eya2 blk	D2 PAM	D2 ag
CC(C)CC(=O)N1CCN(S(=O)(=O)c2ccc3ccccc3c2)CC1	-7	-3.4%	-1.3	2	7	4.0
O=C(CC1CC2CCC1C2)Nc1nc(-c2ccccn2)cs1 (configuration not stated)	?	6.6%	-0.5	?	-3	1.3
COc1ccc2oc(=O)c(/C(C)=N/Nc3nc(-c4cc(C)ccc4C)cs3)cc2c1	-1	4.8%	1.0	-12	-16	-3.2

Not a hit list; about 1.3% have a hit in one of these screens.
